# Polio RdRp inh: poliovirus RdRp elongation inhibitors, primary screen, biochemical, fluorescence polarization, total intensity; Genome polyprotein (Poliovirus type 1 (strain Mahoney)), P03300; 0.66% of 150,000 active; % elongation, % (compound at 16.7 µg/mL); poliovirus polymerase elongation; active compounds read low; in the data active = % elongation below about 90%; also: some results filed as inactive read as strong as hits
# Target sequence (P03300 1749-2209 limits assumed): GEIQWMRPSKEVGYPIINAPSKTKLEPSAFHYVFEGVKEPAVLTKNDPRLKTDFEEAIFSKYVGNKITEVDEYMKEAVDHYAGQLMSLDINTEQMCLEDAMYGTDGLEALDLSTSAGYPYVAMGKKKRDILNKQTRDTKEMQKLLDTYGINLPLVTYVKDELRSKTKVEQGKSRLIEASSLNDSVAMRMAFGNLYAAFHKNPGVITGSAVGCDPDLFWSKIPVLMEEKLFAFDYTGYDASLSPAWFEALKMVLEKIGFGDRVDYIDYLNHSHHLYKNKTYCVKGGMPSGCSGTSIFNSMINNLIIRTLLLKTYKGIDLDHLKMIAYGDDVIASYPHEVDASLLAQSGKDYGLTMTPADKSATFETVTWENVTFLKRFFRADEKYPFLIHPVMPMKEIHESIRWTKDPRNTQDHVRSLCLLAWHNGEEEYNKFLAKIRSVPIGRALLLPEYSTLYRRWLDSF
# Polio RdRp inh intensity: second read-out of Polio RdRp inh, no call of its own (marks repeat the call); % elongation; measured here: total intensity read-out; formula for this scale not given here;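 total fluorescence in place of polarization; lower means less elongation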
# The depositor's hits bear a star. This is a subset. The share of hits here may be higher or lower than overall.
# Preview (5 entries):
SMILES,Polio RdRp inh,Polio RdRp inh intensity
CCCCN(C)CCCNC(=O)c1cc(-c2ccc(Br)s2)nc2ccccc12,106,109
CCC(=O)Nc1cc2nn(-c3ccc(C)cc3)nc2cc1C,107,106
COc1cc(OC)c(NC(=O)c2ccc3c(Cl)c4c(nc3c2)CCCC4)cc1Cl,109,111
Cc1ccc(C(=O)Nc2nnc(S(=O)(=O)N(C)Cc3ccc(Cl)cc3)s2)cc1,110,103
Cc1nc2nc(SCC(=O)NCCc3ccc(Cl)cc3)nn2c(C)c1Cc1ccccc1Cl,109,105

# Main list, previewed entries included:
SMILES,Polio RdRp inh,Polio RdRp inh intensity
CCCCN(C)CCCNC(=O)c1cc(-c2ccc(Br)s2)nc2ccccc12,106,109
CCC(=O)Nc1cc2nn(-c3ccc(C)cc3)nc2cc1C,107,106
COc1cc(OC)c(NC(=O)c2ccc3c(Cl)c4c(nc3c2)CCCC4)cc1Cl,109,111
Cc1ccc(C(=O)Nc2nnc(S(=O)(=O)N(C)Cc3ccc(Cl)cc3)s2)cc1,110,103
Cc1nc2nc(SCC(=O)NCCc3ccc(Cl)cc3)nn2c(C)c1Cc1ccccc1Cl,109,105
Cc1ccc(OCC(=O)Nc2ccccc2C(=O)OCc2cc(=O)n3ccsc3n2)cc1,95,93
Cc1ccc(S(=O)(=O)NCCSc2nnnn2-c2ccc(Cl)c(C(=O)O)c2)cc1,103,104
O=C(Nc1ccc(OC(F)(F)F)cc1)C1CCN(S(=O)(=O)c2ccc3[nH]c(=O)ccc3c2)CC1,102,102
COC(=O)CNC(c1ccccc1)c1cc(Br)ccc1NC(=O)c1ccc(Cl)cc1 (stereo not given),103,109
COCCCNC(=O)c1ccc(Cn2c(=O)c3ccccc3n(Cc3c(C)cc(C)cc3C)c2=O)cc1,101,102
CC(C)(C)c1ccc(C(=O)Nc2nc3nc(-c4ccccc4)cc(=O)n3[nH]2)cc1,110,106
CC(C)(C)c1ccc(OCC(=O)Nc2ccc(S(=O)(=O)Nc3ncccn3)cc2)cc1,97,98
Cc1ccc(Cn2c(=O)n(Cc3ccc(Cl)cc3)c(=O)c3cccnc32)cc1,106,109
CCCC(=O)Nc1cccc(-c2cn3c(C)csc3n2)c1,107,113
CCc1ccc(NC(=O)CCS(=O)(=O)c2ccc3c(c2)CCN3C(C)=O)cc1,99,97
O=C(Cc1cccs1)NC1CC(=O)N(c2ccc(Cl)cc2)C1 (stereo not given),107,104
COc1cccc(NC(=O)CSC2=Nc3ccccc3C3=NC(CCC(=O)NCCc4ccccc4)C(=O)N23)c1 (stereo not given),87,91
Cc1cccc(S(=O)(=O)c2cn(Cc3ccc(F)cc3)c3cc(N4CCCCC4)c(F)cc3c2=O)c1,113,113
CCOc1ccc(NC(=O)C2CCCN(c3nnc(-n4c(C)ccc4C)s3)C2)cc1 (stereo not given),105,107
CCOc1cccc(CC(=O)N2CCc3c([nH]c4ccccc34)C2c2ccc(C)cc2)c1OCC (stereo not given),102,109
COc1ccccc1OCC(=O)NCC1(N2CCOCC2)CCCCC1,103,105
CC(NC(=O)CSc1nc(-c2cccc(Cl)c2)nc2cc(=O)[nH]n12)c1nc2ccccc2n1C (stereo not given),103,106
CCC(=O)N1c2ccccc2CC1C(=O)NCCCN1CCN(c2ccccc2)CC1 (stereo not given),100,106
CC(=O)N1CCCc2cc(S(=O)(=O)N3CCC(C(=O)NCCC(C)C)CC3)ccc21,108,112
COc1ccc(S(=O)(=O)N2CCN(c3ccccc3)CC2)cc1-c1noc(C)n1,106,112

# Single records, from the list above:
# `Cc1nc2nc(SCC(=O)NCCc3ccc(Cl)cc3)nn2c(C)c1Cc1ccccc1Cl` as listed: Polio RdRp inh: 109; Polio RdRp inh intensity: 105
# `CCc1ccc(NC(=O)CCS(=O)(=O)c2ccc3c(c2)CCN3C(C)=O)cc1` as listed: Polio RdRp inh: 99; Polio RdRp inh intensity: 97

# (list continues)
SMILES,Polio RdRp inh,Polio RdRp inh intensity
O=C(Cn1ncc2c3ccccc3n(Cc3ccccc3F)c2c1=O)NC1CCCCCC1,107,110
COC(=O)c1cc2oc(C)cc2n1Cc1ccc(C)cc1,109,101
CC(C)Oc1ccc(CNC(=O)c2ccc3nc(Cc4ccccc4)oc3c2)cc1,106,112
COc1ccc(CN2COc3ccc4c(-c5ccccc5)cc(=O)oc4c3C2)cc1OC,104,110
Cc1ccc(C2=Nc3ccccc3NC(c3ccncc3)=N2)cc1,99,105
O=C(C1CCC1)N1CCCc2cc(S(=O)(=O)N3CCN(c4ccccc4)CC3)ccc21,105,108
O=C(COc1ccc(Br)cc1Cl)Nc1ncn[nH]1,108,112
Cc1ccccc1Cn1nc(C)c(NC(=O)c2cc(-c3ccc(F)cc3)on2)c1C,107,113
CCc1nn2c(=O)cc(COC(=O)c3cccc(NC(=O)c4ccccc4C)c3)nc2s1,111,111
O=C(Nc1ccccc1F)c1ccc2c(Cl)c3c(nc2c1)CCC3,101,103
Cc1ccccc1NS(=O)(=O)c1ccc(Br)s1,104,110
CCc1ccc(NC(=O)C2CCC(CNS(=O)(=O)c3ccc4c(c3)C(C)(C)C(=O)N4C)CC2)cc1 (stereo not given),110,113
CCOc1ccc(CCNC(=O)c2csc3c2CCCCC3)cc1,105,105
CCc1ccc(C(=O)c2cn(CC(=O)NCCc3ccccc3)c3nc(C)ccc3c2=O)cc1,105,107
CCOc1ccc(-c2nnc(SCC(=O)NCc3ccccc3)nc2-c2ccc(OCC)c(OC)c2)cc1OC,110,118
O=C(NCc1cccc(F)c1)C1CCCN(C(=O)N2CCOc3ccccc32)C1 (stereo not given),106,105
CCN1CCN(C(c2ccc(SC)cc2)c2c(O)cc(C)n(Cc3ccco3)c2=O)CC1 (stereo not given),95,104
Cc1nc2sc(C)c(C)n2c(=O)c1S(=O)(=O)NCCc1ccc(Cl)cc1,102,96
CCc1ccc(NC(=O)c2ccc3c(c2)c(C)c(C)n3Cc2ccccc2)cc1,112,115
CCOc1ccc(NC(=O)N(Cc2ccc(CC)cc2)Cc2cn[nH]c2-c2ccc(OC)cc2)cc1,113,103
COc1ccc(NCc2cc3cc4c(cc3n(CC(=O)Nc3ccc(C)c(C)c3)c2=O)OCO4)cc1,102,103
O=C(COCc1cc(-c2ccc3c(c2)OCO3)on1)N1CCN(c2cccc(Cl)c2)CC1,104,106
CCN(CC)CCCNC(=O)c1c2c(nc3ccccc13)C(=O)N(C1CCCCC1)C2,103,105
O=C1Nc2ccccc2Oc2cc(Oc3cccc(Cl)c3)ccc21,107,111
CCCOCc1cc(CN2CCN(c3ccccc3OC)CC2)c(O)c2ncccc12,125,132

# (listing goes on)
SMILES,Polio RdRp inh,Polio RdRp inh intensity
Cc1ccc(C(=O)N2CCCCC2CCN2CCCCC2)cc1 (stereo not given),106,103
COC(=O)c1ccc(NC(=O)c2c(NCc3cccc(F)c3)sc3c2CCCC3)cc1,114,119
CCOC(=O)c1cc(C)n(CC2CCC(C(=O)Nc3ccc(Cl)cc3)CC2)c1C (stereo not given),115,115
Cc1nnc(NC(=O)CSc2nccn2Cc2ccc(F)cc2)s1,113,113
COc1ccc(-c2nc3c(c(SCC(=O)Nc4ccc(C(=O)O)cc4)n2)Cc2ccccc2O3)cc1,108,111
Cc1ccc(CN2C(=O)c3ccccc3S(=O)(=O)c3ccc(C(=O)OCC4CCCO4)cc32)cc1 (stereo not given),106,114
Cc1ccc(C(=O)Nc2nnc(S(=O)(=O)N3CCCCCC3)s2)cc1,109,112
COCCCNC(=O)C1CCN(c2nc3ccc(Cl)cc3[nH]2)CC1,110,98
CC(=O)Nc1nonc1-c1nnc(SCc2ccccc2C)n1C,103,105
Cc1c(C(=O)N(Cc2cccc(F)c2)C2CCS(=O)(=O)C2)oc2cc(Br)ccc12 (stereo not given),107,110
CCc1ccc(NC(=O)CSc2nccn2-c2ccc(F)cc2)cc1,104,99
COc1ccccc1N1CCN(CCCNC(=O)c2cnn(-c3cccc(Cl)c3)c2C2CCN(C(=O)OC(C)(C)C)CC2)CC1,105,111
O=C(CCCn1c(=O)c2ccccc2n(Cc2ccc(F)cc2Cl)c1=O)NCCc1ccc(Cl)cc1,102,105
Cc1ccccc1NC(=O)c1cccc2c(=O)c3c([nH]c12)CCCC3,110,105
CCOC(=O)CC(NC(=O)Cn1nnc(-c2ccccc2F)n1)c1ccccc1Cl (stereo not given),98,101
Cc1cc(Nc2cc(Cl)ccc2C)n2nc(-c3ccccc3)nc2n1,112,107
O=C(NCc1ccc(F)cc1)C1CCCN(c2ncnc3onc(-c4ccc(F)cc4)c23)C1 (stereo not given),102,96
CC(=O)c1ccc(S(=O)(=O)N2CCn3cccc3C2c2ccccc2F)cc1 (stereo not given),101,105
Cc1cccc(NC(=O)Cn2c(=O)n(CC3CCC(C(=O)NCCc4ccccc4)CC3)c(=O)c3ccccc32)c1 (stereo not given),106,109
COc1cc(CNC(=O)c2cc(-c3ccccc3)n[nH]2)cc(OC)c1OC,107,104
COc1ccc(-c2cc3nc(C)c(CCC(=O)N4CCN(c5cccc(Cl)c5)CC4)c(C)n3n2)c(OC)c1,106,107
CCc1ccc(NC(=O)CN2C(=O)C(c3ccccc3)=NC23CCCCCC3)cc1,106,106
CCOc1ccc(CNC(=O)Cn2c(=O)c3cccn3c3cccnc32)cc1,110,107
CCOCCCNC(=O)c1c(NC(=O)c2nc(SC)ncc2Cl)sc2c1CCCC2,112,106
CC(C)(C)OC(=O)N1CCC(c2c(C(=O)NCCc3ccsc3)cnn2-c2ccccc2Cl)CC1,98,103

# Quoted from the listing.
# Entry for Cc1nc2sc(C)c(C)n2c(=O)c1S(=O)(=O)NCCc1ccc(Cl)cc1 in Polio RdRp inh intensity: 96
# Entry for CCC(=O)N1c2ccccc2CC1C(=O)NCCCN1CCN(c2ccccc2)CC1 (stereo not given) in Polio RdRp inh: 100

# Next compounds:
SMILES,Polio RdRp inh,Polio RdRp inh intensity
Cc1cc2nc(-c3ccc(NC(=O)c4ccc(OCC(C)C)cc4)cc3)oc2cc1C,108,114
Cc1cccn2c(=O)c(/C=C(\C#N)c3nc4ccccc4n3C)c(Oc3ccc(Cl)cc3)nc12,90,125
CCOC(=O)c1sc(NC(=O)c2nc3nc(C)cc(C(F)F)n3n2)c(C(=O)OC)c1C,104,106
COc1cc2c(=O)c(C(=O)c3ccc(F)cc3)cn(Cc3cccc(F)c3)c2cc1OC,112,112
Cc1ccc2oc(C(=O)Nc3c(C(=O)c4ccc(C)c(F)c4)oc4ccccc34)cc(=O)c2c1,105,110
O=C(NCc1ccc2c(c1)OCO2)c1ccc2c(c1)N(Cc1ccc(F)cc1)C(=O)c1ccccc1S2=O (stereo not given),107,109
CCc1ccc(S(=O)(=O)Nc2ccc(-c3ccc(N4CCCC4)nn3)cc2)cc1,105,109
Cc1cccc(OCCn2nnc3sc4c(c3c2=O)CCCC4)c1,110,117
Cc1ccc(S(=O)(=O)N2CCN(Cc3noc(CCC(=O)N4CCCCC4)n3)CC2)c(C)c1,105,111
Cc1ccc(N2CCN(S(=O)(=O)c3ccc(Cl)c4ccccc34)CC2)c(C)c1,107,110
CCN(CC)c1ccc(C(=O)N2CCc3c([nH]c4ccccc34)C2c2ccc(F)cc2)cc1 (stereo not given),109,107
CCn1c(=O)cc(SCC(=O)N2CCN(c3cc(C)ccc3C)CC2)c2ccccc21,110,113
CN1CCN(CCNC(=O)c2cnn(-c3ccc(F)cc3)c2C2CCN(C(=O)OC(C)(C)C)CC2)CC1,106,102
COc1ccc(NC(=O)CSc2nc(-c3ccccc3)cc(-c3cc(OC)c(OC)c(OC)c3)c2C#N)c(OC)c1,104,106
Cc1c(C)n(Cc2ccc(F)cc2)c2ccc(C(=O)N3CCN(c4ccc(F)cc4)CC3)cc12,111,108
CCOc1ccccc1CNCc1c(C(=O)O)n(Cc2ccc(F)cc2)c2cc(C)ccc12,111,113
CCOc1ccc(C(=O)N(Cc2nc(-c3cccc(C)c3)no2)C(C)C)cc1,110,109
CCOc1ccc(C(=O)N2CCN(CCc3ccccn3)CC2)cc1,109,109
Cc1ccc(C2C=C(c3ccc(Cl)cc3)Nc3nc(NC(=O)CCC(=O)O)nn32)cc1 (stereo not given),84,145
Cc1ccc(OCC(=O)N(Cc2ccco2)C2CCS(=O)(=O)C2)cc1 (stereo not given),113,110
Fc1ccc(-c2nnc(CN3CCN(c4ccccn4)CC3)o2)cc1,105,113
CCOC(=O)C1CCCN(C(=O)c2cc3c(Cl)nc4ccccc4c3s2)C1 (stereo not given),104,106
O=C(NCCc1ccccc1)c1ccc(CSc2nc3ccncc3n2Cc2ccccc2)cc1,112,110
O=C(NCCc1ccc(Cl)cc1)c1ccc(CS(=O)(=O)Cc2ccc(F)cc2)o1,107,111
COc1ccc(Nc2ncc3c(n2)CCN(Cc2cc(Br)cs2)C3)c(OC)c1,106,107

# Further compounds.
SMILES,Polio RdRp inh,Polio RdRp inh intensity
Cc1ccc(-n2nc(C)c(C(=O)NCCCN3CCN(c4ccc(F)cc4)CC3)c2-n2cccc2)cc1,102,100
CCOc1ccc(CNC(=O)c2[nH]c3ccccc3c2Sc2ccc(C)cc2)cc1,107,95
CCOc1ccccc1CNC(=O)c1cc2c(=O)n(Cc3cccnc3)ccc2nc1C,101,110
CC(=O)c1ccc(N2CCN(S(=O)(=O)c3ccc(-c4coc(C)n4)cc3)CC2)cc1,112,114
CCC(C(=O)OC)n1cnc2c(cnn2-c2ccc(F)cc2)c1=O (stereo not given),108,109
Cc1cc(C)cc(Nc2cc(C(=O)NCc3ccccc3)c3ccccc3n2)c1,106,109
N#C/C(=C\c1ccc(Cl)cc1)c1nc2ccccc2[nH]1,104,112
Cc1ccc(/C=C/c2onc(C)c2S(=O)(=O)N2CCC(C(=O)Nc3ccc(OC(F)(F)F)cc3)CC2)cc1,104,101
Cc1ccc(NS(=O)(=O)c2ccc3c(c2)CCN3C(=O)C2CC2)c(C)c1,114,115
CCOC(=O)c1nnc2c(-c3ccc(Cl)cc3)c(C)nn2c1N,98,99
CCC(CC)C(=O)Nc1ccc(OCc2cc(=O)n3c4c(sc3n2)CCCC4)cc1,104,97
